# H5N1 antiviral: MDCK cell protection from H5N1 avian flu; 96,000 compounds, 0.07% hits; inhibition, % at 50 µM; AID 740, 2007; cytopathic effect, luminescence, 72 h; hits give high values; no value below 0 was filed and about half of the inactive calls have no number; reference of the scale not given here; in the data active means inhibition above about 25%
# An asterisk follows results filed as active; i = inactive. This is a subset. The share of hits here may be higher or lower than overall.
SMILES,H5N1 antiviral
COc1ccccc1N1CCN(c2nc3ccccn3c(=O)c2C=O)CC1,0.6
Cc1ccc2c(c1)C(O)(CC(=O)c1cccnc1)C(=O)N2 (configuration not stated),0.3
O=C(CC1(O)C(=O)Nc2cc(Cl)cc(Cl)c21)c1ccccc1O (configuration not stated),0.1
CCOCCn1c(N2CCN(c3ccc(OC)cc3)CC2)nc2c1c(=O)n(C)c(=O)n2C,1.8
CN(C(=O)c1ccc(NC(=O)C2CC=CCC2C(=O)O)cc1)c1ccccc1 (configuration not stated),0.2
CCn1nnnc1-c1ccc(OC)c(S(=O)(=O)Nc2ccc(C)c(C)c2)c1,1.6
CCn1c(SCC(=O)NC2CCCc3ccccc32)nnc1-c1cccs1 (configuration not stated),i
COC(=O)c1ccc(-c2ccc(CNCC(O)c3ccccc3)o2)cc1 (configuration not stated),i
Cn1cccc1C(=O)NC(=O)COC(=O)c1ccc(O)cc1,i
CN(C)S(=O)(=O)c1ccc(NS(=O)(=O)/C=C/c2ccccc2)cc1,0.9
OC(CN1CCCCC1)CN(c1ccccc1)c1ccccc1 (configuration not stated),0.2
N[C@@H](Cc1c[nH]c2ccccc12)c1nnc(SCc2ccccc2F)o1,i
COc1ccc(Br)cc1C(=O)Nc1ccc(NC(=O)c2ccco2)cc1,i
CCOC(=O)/C(=N\Nc1cc(C(F)(F)F)ccc1Cl)N(CC)CC,i
O=C(O)CSc1nc(-c2ccccc2)cc(=O)[nH]1,i
COc1ccc(CCNC(=O)CCNS(=O)(=O)c2cccc3nsnc23)cc1OC,i
CCCCn1c(C(C)NC(=O)CCC)nc2ccccc21 (configuration not stated),i
Cc1c(Br)cc(C(=O)NCCCN2CCOCC2)c(C)c1C,i
CCOc1ccc(CNC23CN4CN(CN(C4)C2)C3)cc1,0.2
Cc1ccccc1NC1=C(Cl)C(=O)OC1NC(=O)c1ccccc1 (configuration not stated),i
COC(=O)c1cn(NC(=O)c2cccc(F)c2)c(=O)c2ccccc12,3.0
O=C(CN1C(=O)CSC1=O)c1ccccc1,1.0
C=CCn1c(=O)c2ccccc2n2c(SCC(=O)c3ccccc3)nnc12,1.5
CCCC(c1nnnn1Cc1ccc(OC)cc1)N1CCN(c2ccccc2)CC1 (configuration not stated),1.9
CCOC(=O)c1nc[nH]c1C,i
COc1ccc(C(c2c(O)cc(C)oc2=O)c2c(O)cc(C)oc2=O)cc1,i
COc1ccc(NC(=O)C2CSC3c4ccccc4C(=O)N23)cc1 (configuration not stated),0.8
COc1cccc(C2=NOC(C(=O)Nc3cc(C)nn3-c3ccccc3)C2)c1OC (configuration not stated),i
COc1ccc(C(=O)COC(=O)[C@H](C)Nc2ccc(C(F)(F)F)cc2[N+](=O)[O-])c(OC)c1,i
COc1ccccc1Nc1nc(C2(C)CCC(=O)O2)cs1 (configuration not stated),1.1
CCC(C)C1C(C#N)=C(N)OC2=C1C(=O)CC(C)(C)C2 (configuration not stated),0.6
O=C(Nc1nnc(SCC(=O)N2CCOCC2)s1)c1ccccc1Cl,i
CC(C)c1ccc(C(=O)CSc2ncn[nH]2)cc1,i
C=CCN=C1CC(C)(C)CC(=O)/C1=C(\O)c1ccccc1,i
Cc1nnc(SCC(=O)NCc2ccc(Cl)cc2)[nH]c1=O,0.4
CC12C(=O)N(CCC(=O)O)C(=O)C1C1C=CC2C1 (configuration not stated),i
CC(C)(C)OC(=O)N1CCC[C@H]1c1nnc(SCc2c(Cl)cccc2Cl)o1,2.9
COCCCNC(=O)c1c(N)n(-c2ccc(S(N)(=O)=O)cc2)c2nc3ccccc3nc12,i
CCOc1ccc(NC(=O)CSc2nc3c(c(=O)n2C)SC(C)C3)cc1 (configuration not stated),1.8
Cc1ocnc1C(=O)Nc1ccc(Cl)cc1,i
O=C(c1ccc(Cl)c(S(=O)(=O)NCc2ccco2)c1)N1CCN(c2ccc(F)cc2)CC1,i
N#Cc1c(/N=C/c2ccco2)sc2c1CCCCC2,1.2
CCS(=O)(=O)c1ccc2c(c1)N(S(=O)(=O)c1ccc(OC)cc1)CC(C(=O)O)O2 (configuration not stated),1.0
COC(=O)Cn1c(=O)cnc2ccccc21,0.0
COc1ccc(C(=O)c2oc3ccccc3c2NC(C)=O)cc1,i
COc1ccc(NS(=O)(=O)c2cc(C(=O)O)ccc2C)cc1,0.8
Cc1cc(C)cc(C(=O)N2CCCCCC2)c1,2.1
COc1ccc(-n2c(=O)[nH]cc(C(=O)Nc3ccccc3)c2=O)cc1,3.4
Cc1cc(=O)[nH]c(SC/C=C/c2ccccc2)n1,1.1
Cc1cc(C)n(-c2nc3ccccc3nc2N2CCN(S(=O)(=O)c3ccc4ccccc4c3)CC2)n1,i

# Going on with the list.
SMILES,H5N1 antiviral
CCOC(=O)CSc1cccc2cccnc12,i
O=C(Nc1ccccc1)c1ccc2nsnc2c1,i
COC(=O)CCC(=O)Nc1ccc(Br)cc1,i
Cc1ccc(NC(=O)c2nc[nH]c2C(=O)Nc2ccc(C)cc2)cc1,1.3
CCn1c(SCC(=O)NCc2ccco2)nnc1C(C)C,2.5
COc1ccc(NC(=O)CN(C)C(C)C(=O)N2CCCCC2)cc1 (configuration not stated),i
COc1cc(NC(=O)c2ccccc2Cl)ccc1NC(=O)c1ccco1,0.1
CN1C(=O)OC(C)(CCc2ccccc2)C1(C)O (configuration not stated),0.5
CC1Cc2nc(SCC(=O)NCc3ccccc3)n(Cc3ccccc3)c(=O)c2S1 (configuration not stated),0.6
COC(=O)c1ccc(NC(=O)Cc2ccc(C)cc2)cc1,0.3
COc1ccc(NC(=O)c2cc(C)on2)cc1OC,i
Cc1ccc(N2C(=O)CC(Nc3ccccc3)C2=O)cc1 (configuration not stated),i
CCCCNC(=O)c1onc(CSc2ccccc2)c1C(=O)O,i
CC1Cc2nc(SCC(=O)NC3CCCCC3)n(C)c(=O)c2S1 (configuration not stated),2.7
COC(=O)C(C)Sc1ncnc2c1nnn2-c1ccc(F)cc1 (configuration not stated),0.3
O=C(NC1CCCC1)c1ccc(CS(=O)(=O)c2cccc(C(F)(F)F)c2)o1,1.3
Cc1ccc(C(=O)NC(C)(COc2nonc2C)COc2nonc2C)cc1,i
Cc1cccc(N2CCN(C(=O)c3ccccc3NC(=O)C3CC=CCC3C(=O)O)CC2)c1 (configuration not stated),i
O=C(CNS(=O)(=O)c1ccc2ccccc2c1)OCC(=O)c1ccc(Br)s1,i
CCOC(=O)C1(CC)NC(c2ccco2)C2C(=O)N(CC)C(=O)C21 (configuration not stated),0.1
CN(C)CCCN1C(=O)C(=O)/C(=C(/O)c2ccncc2)C1c1cccc(Br)c1 (configuration not stated),1.8
O=C(Cn1cccc1C(=O)c1ccccc1)NCc1cccs1,1.6
CCOC(=O)c1nnn(-c2nonc2N)c1CN(CC)c1ccccc1,i
COc1ccc(NC(=O)c2oc3ccccc3c2C)c(OC)c1,i
CCOc1ccccc1NC(=O)CSc1nnc(Cc2cccn2C)n1-c1ccc(F)cc1,i
O=C(Nc1cccc(Cl)c1)Nc1nccs1,i
C=CCN1CC(c2nc3ccccc3n2Cc2ccccc2)CC1=O (configuration not stated),0.1
CCCCCCn1c(CN2CCN(CCO)CC2)nc2c1c(=O)n(C)c(=O)n2C,4.0
O=C(Cn1nc(C(F)(F)F)c2c1CCCC2)NC1CCCC1,1.6
COC(=O)c1cccc(NC(=O)CN2CCC(NC(=O)c3cc(OC)c(OC)c(OC)c3)CC2)c1,i
Cc1ccc(CS(=O)(=O)CCC(=O)NCCCN2CCCC2)cc1,1.4
O=C(NCc1cccnc1)c1ccc(Cl)cc1[N+](=O)[O-],0.8
NC(=O)c1ccsc1NC(=O)C1CCCCC1,1.8
O=C(Nc1ccccc1)N1CCCC1,i
CCc1cccc(CC)c1N(COC)C(=O)Cn1nnc2ccccc21,0.4
CCCCn1c(=O)[nH]c(=O)c2c1nc(-c1ccncc1)n2CCOC,0.2
CCn1c(NC(=O)Nc2ccccc2OC)nc2ccccc21,i
CCOc1ccc(S(=O)(=O)NCCC(=O)OC(C)C(=O)N2CCc3ccccc32)cc1 (configuration not stated),i
CCOc1ccccc1N1CCN(S(=O)(=O)c2cccc3nsnc23)CC1,2.4
Cc1nc2ccc(-n3ccc(=O)cc3)cc2s1,1.0
Cc1ccc(S(=O)(=O)N(C)CCCC(=O)NCc2ccc3c(c2)OCO3)cc1,i
CS(=O)(=O)N(Cc1ccco1)CC(O)Cn1c2ccccc2c2ccccc21 (configuration not stated),i
CC1(C)CC(=O)C2=C(C1)OC(N)=C(C#N)C21CCN(C(=O)OCc2ccccc2)CC1,i
Cc1ccc(C23OC(=O)C(C)(C)C2OC(=O)C3(C)C)cc1 (configuration not stated),i
CCn1c2ccccc2c2cc(C3C(C#N)=C(C)NC(C)=C3C#N)ccc21,i
C=CCn1c(COc2ccc(Cl)cc2)nnc1SCC(=O)NCC(=O)OCC,i
O=C(Nc1ccccc1)c1nn(-c2ccccc2)c(=O)cc1C(F)(F)F,i
CN(C(=O)COC(=O)c1nc(-c2ccccc2)n(-c2ccccc2)n1)C1CCS(=O)(=O)C1 (configuration not stated),i
Cc1ccc(NC(=O)C(=O)c2c(-c3ccccc3)cc3ccccn23)cc1S(=O)(=O)N1CCOCC1,i
CCCn1c(=O)c(F)cn(Cc2ccc(OC)c([N+](=O)[O-])c2)c1=O,i

# Next part:
SMILES,H5N1 antiviral
CCOC(=O)N1CCN(C(=O)CSc2nc3c(c(=O)n2-c2ccccc2OC)SCC3)CC1,i
CC(C)(C)NC(=O)c1ccc(NC(=O)C2COc3ccccc3O2)cc1 (configuration not stated),0.7
CCOC(=O)c1cccc(NC(=O)CCS(=O)(=O)c2cccc3nsnc23)c1,2.5
O=S(CC(O)COCc1ccc(Cl)cc1)c1ccccn1 (configuration not stated),i
COc1ccccc1CNC(=O)CCS(=O)(=O)c1cccc2nonc12,0.6
CN(C)c1ccc(C(=O)OCc2ccc(Br)cc2)cc1,i
COC(=O)c1ccccc1NC(=O)NCc1ccccn1,i
CC(C)c1nnc(NC(=O)CCC(=O)N2CCN(C3CCCCC3)CC2)s1,i
Cc1c(NC(=O)CCN2C(=O)c3ccccc3C2=O)c(=O)n(-c2ccccc2)n1C,i
COc1ccc(OCC(=O)Nc2cccc(C(C)=O)c2)cc1,0.1

# 26 of the compounds above, with bars between the fields:
mol | H5N1 antiviral
COc1ccccc1N1CCN(c2nc3ccccn3c(=O)c2C=O)CC1 | 0.6
Cc1ccc2c(c1)C(O)(CC(=O)c1cccnc1)C(=O)N2 (configuration not stated) | 0.3
O=C(CC1(O)C(=O)Nc2cc(Cl)cc(Cl)c21)c1ccccc1O (configuration not stated) | 0.1
CCOCCn1c(N2CCN(c3ccc(OC)cc3)CC2)nc2c1c(=O)n(C)c(=O)n2C | 1.8
CN(C(=O)c1ccc(NC(=O)C2CC=CCC2C(=O)O)cc1)c1ccccc1 (configuration not stated) | 0.2
CCn1nnnc1-c1ccc(OC)c(S(=O)(=O)Nc2ccc(C)c(C)c2)c1 | 1.6
CCn1c(SCC(=O)NC2CCCc3ccccc32)nnc1-c1cccs1 (configuration not stated) | i
COC(=O)c1ccc(-c2ccc(CNCC(O)c3ccccc3)o2)cc1 (configuration not stated) | i
Cn1cccc1C(=O)NC(=O)COC(=O)c1ccc(O)cc1 | i
CN(C)S(=O)(=O)c1ccc(NS(=O)(=O)/C=C/c2ccccc2)cc1 | 0.9
OC(CN1CCCCC1)CN(c1ccccc1)c1ccccc1 (configuration not stated) | 0.2
N[C@@H](Cc1c[nH]c2ccccc12)c1nnc(SCc2ccccc2F)o1 | i
COc1ccc(Br)cc1C(=O)Nc1ccc(NC(=O)c2ccco2)cc1 | i
CCOC(=O)/C(=N\Nc1cc(C(F)(F)F)ccc1Cl)N(CC)CC | i
O=C(O)CSc1nc(-c2ccccc2)cc(=O)[nH]1 | i
COc1ccc(CCNC(=O)CCNS(=O)(=O)c2cccc3nsnc23)cc1OC | i
CCCCn1c(C(C)NC(=O)CCC)nc2ccccc21 (configuration not stated) | i
Cc1c(Br)cc(C(=O)NCCCN2CCOCC2)c(C)c1C | i
CCOc1ccc(CNC23CN4CN(CN(C4)C2)C3)cc1 | 0.2
Cc1ccccc1NC1=C(Cl)C(=O)OC1NC(=O)c1ccccc1 (configuration not stated) | i
COC(=O)c1cn(NC(=O)c2cccc(F)c2)c(=O)c2ccccc12 | 3.0
O=C(CN1C(=O)CSC1=O)c1ccccc1 | 1.0
C=CCn1c(=O)c2ccccc2n2c(SCC(=O)c3ccccc3)nnc12 | 1.5
CCCC(c1nnnn1Cc1ccc(OC)cc1)N1CCN(c2ccccc2)CC1 (configuration not stated) | 1.9
CCOC(=O)c1nc[nH]c1C | i
COc1ccc(C(c2c(O)cc(C)oc2=O)c2c(O)cc(C)oc2=O)cc1 | i

# (next part)
SMILES,H5N1 antiviral
COc1cc2[nH]c(=O)n(Cc3ccc(C(=O)NCCCN4CCN(C)CC4)cc3)c(=O)c2cc1OC,0.8
O=C(CN1CCN(Cc2ccc3c(c2)OCO3)CC1)N1CCc2[nH]c3ccccc3c2C1,i
CCOC(=O)c1cnn(-c2nc(CC)nc3sc4c(c23)CCC4)c1N,0.9
Cc1ccc(S(=O)(=O)N(C)CC(=O)N2CCc3ccccc32)cc1,i
O=C1/C(=C/c2cccs2)N=C(c2cccs2)N1Nc1ccccc1,i
O=C(NCc1ccccc1)c1cc(=O)[nH]c2ccccc12,0.8
COc1ccc(CCNCc2ccc(OC)c(OC)c2OC)cc1,i
COC(=O)c1cc2ccsc2n1CC(=O)N(C)C1CCCCC1,3.6
COc1ccccc1NS(=O)(=O)c1cc([N+](=O)[O-])ccc1N/N=C/c1c(C)[nH]c2ccccc12,0.2
O=C(NCCN1CCN(c2ccccc2)CC1)c1cccn2c(=O)c3cc(Cl)ccc3nc12,1.4
c1ccc(-c2ccc(Oc3cc(N4CCOCC4)nc(-c4ccccc4)n3)cc2)cc1,i
CN(C)C(/C=C/Nc1ccc(C#N)cc1)=C(C#N)C#N,i
O=C(Cn1c(SCc2ccccc2)nc2ccccc21)N1CCOCC1,0.1
O=C(CSc1nccn1-c1ncc(C(F)(F)F)cc1Cl)c1ccc(Br)cc1,i
CC(C)COC(=O)C1C2C=CC3(CN(C(C)c4ccc(Br)cc4)C(=O)C13)O2 (configuration not stated),i
COc1cccc(-c2cc(C(=O)Nc3cccnc3)no2)c1,i
COC(=O)C(NNc1ccccc1)(NC(=O)c1ccccc1F)C(F)(F)F (configuration not stated),i
COc1cc(CNCCO)ccc1OC1CCCC1,1.3
COc1ccc(NC(=O)CC2COc3ccccc3O2)c(OC)c1 (configuration not stated),0.6
O=C(NCc1ccco1)c1cccc(-c2nnc(-c3ccccc3)o2)c1,i
